Bm FixLJ act – increases Burkholderia fixLJ two-component signaling. B. multivorans fixK-promoter GFP reporter, 18 h; stronger effect = higher value. actives 0.3% (n = 29,000). z-score (test concentration not listed);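 active = replicate mean overnight rise in green fluorescent reporter signal, 3 or more SD over negative controls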;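 also: score is relative to vehicle wells of the plate; 300 nL library stock went into each well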
An asterisk follows results filed as active; & = joins results of further samples. These rows are one share of the data; count on the stated rates, not on these rows.

compound,Bm FixLJ act
Cn1cc(Cl)c(C(=O)N2CCCN(c3cccc(C#N)n3)CC2)n1,-0.87
CCc1nn(CC(=O)N2CCN(c3cccc(C)c3)C(C)C2)c(=O)c2cc3sccc3n12 (stereo unspecified),2.5
COC(=O)c1c(NC(=O)CCCOc2ccccc2)sc2c1CCC(C)C2 (stereo unspecified),-1.5
COc1cccc(C(=O)Nc2nc3nc(C)c(Cc4ccccc4)c(=O)n3[nH]2)c1,-0.4
C[C@]12CC[C@@H]3c4ccc(O)cc4CC[C@H]3[C@@H]1CCC2=O,-1.5
Cc1ccc(C(=O)NCc2ccc(F)cc2Cl)c(OCCCN)c1,-0.12
Cc1ccc(-n2c(=O)[nH]c3sc4c(c3c2=O)CCCC4)cc1,2.4
COC(=O)c1ccccc1NC(=O)c1cc(-c2ccc(Cl)cc2)on1,-0.98
Cc1ccc(C(=O)Nc2nc3nc(C)cc(=O)n3[nH]2)cc1,-0.77
COC(=O)c1ccccc1NC(=O)c1cc2nc(-c3ccc(OC)cc3)cc(C(F)(F)F)n2n1,-2
C[C@]12CCC3c4ccc(O)cc4CCC3C1CCC2=O (stereo partly specified),-0.76
NC(=O)OCC(COC(N)=O)c1ccccc1,-0.59
CC(C)CC(=O)C1CCCN(C(=O)c2ccc(N(C)CCC(N)=O)nc2)C1 (stereo unspecified),-1.3
COCC(NC(=O)C1(Oc2ccc(C)cc2)CCNCC1)c1ccnn1C (stereo unspecified),-0.82
COC(=O)CSc1nc(-c2ccc(F)cc2)cc(C(F)(F)F)n1,-1.3
Cc1cc(=O)oc2c3c(ccc12)OCN(Cc1ccc(Cl)cc1)C3,0.36
Nc1c(C(=O)Nc2ccc(F)c(Cl)c2)sc2nc3c(cc12)N1CCC3CC1,-1.3
CCCCOc1ccccc1C(=O)NCCc1nc2sc(C)c(C)c2c(=O)[nH]1,0.2
CC(C)c1ccc(NC(=O)N2c3ccccc3Sc3ccccc32)cc1,0.81
COCCn1cnnc1CCNC(=O)c1snnc1C(C)C,-4.5
CCc1ccc(CN(C(=O)c2cc(=O)c3ccc(C)cc3o2)C2CCS(=O)(=O)C2)cc1 (stereo unspecified),0.56
Cc1cc(C)c2c(=O)cc(C(=O)Nc3ccc(C)c(Cl)c3)oc2c1,-1.4
Cc1nc(CN2CCC(NC(=O)CN3CCCC3)C(O)C2)cs1 (stereo unspecified),0.99
O=C(NCCO)c1cn(Cc2cccc(C(F)(F)F)c2)nn1,0.45
CCc1ccccc1NC(=O)N1CCC2(CC1)Oc1ccccc1C(=O)N2Cc1ccccc1F,-0.81
CC(C)OCCCNC(=O)c1ccc2c(=O)n(CCc3ccccc3)c(=O)[nH]c2c1,0.59
COC(=O)c1cc2oc3ccccc3c2n1Cc1nc(-c2ccc(Cl)cc2)oc1C,-0.99
CCOc1ccc(NC(=O)c2cc3c(n(-c4ccc(OC)cc4)c2=O)CC(C)(C)CC3=O)cc1,-2.2
COc1ccc(Cl)cc1NC(=O)c1sc2nc3c(cc2c1N)CN(C)CC3,0.72
Cn1nc(C(=O)NCCc2cn[nH]n2)cc1-c1cccs1,-0.02
Cn1c(=O)oc2cc(S(=O)(=O)N3CCCC(C(=O)NCc4ccc(F)cc4)C3)ccc21 (stereo unspecified),-1.6
Cc1cc(C)c(NC(=O)Cn2c(=O)n(Cc3ccco3)c(=O)c3ccc(C(=O)NC4CCCC4)cc32)c(C)c1,-0.16
CCc1cc2c(-c3ccccc3)cc(=O)oc2c2c1OCN(Cc1ccc(C)cc1)C2,-3.6
CCn1c(CN(C)C)nnc1C1CCN(C(=O)CCc2cccnc2)CC1,-1.3
Oc1ccccc1-c1nc(/C=C/c2ccccc2Cl)no1,-1
Cc1cc(CC2CN(CC(=O)NCCc3ccc(F)cc3)CC2O)n[nH]1 (stereo unspecified),0.62
Cc1cc(C)n(-c2cccc(CN(C)C(=O)NC3(C(C)C)CC3)c2)n1,-1.1
COCc1nc(C2CC(NC(=O)c3nnc4nc(C)ccn34)C2)cc(=O)[nH]1 (stereo unspecified),-0.55
Cc1ccccc1Cn1c(=O)n(CCc2ccccc2)c(=O)c2sc3ccccc3c21,0.14
CCc1nnc(CNC(=O)Nc2cc(C)nn2Cc2cccc(C)c2)s1,-1
Cc1nsnc1C(=O)N1CCC(C(O)CCc2ccccc2)CC1 (stereo unspecified),-1.2
CCOc1ccc(N(C(=O)c2ccc(C)cc2)S(=O)(=O)c2ccc3c(c2)n(C)c(=O)n3C)cc1,0.2
Cc1ccc2c(c1)-c1ncc(C(=O)c3ccccc3O)cc1CO2,2.8
Cc1c(CNCCCc2ccccc2)c(C(=O)O)c(C)n1Cc1ccc(Cl)cc1,-0.82
COc1cc(C(=O)N2CCN(C(=O)COc3cccc(C)c3)CC2)cc(OC)c1OC,-0.96
COc1ccc(C2(CNC(=O)C(=O)Nc3ccc(F)cc3)CCCC2)cc1OC,-2
COc1ccc(-c2cc(C(=O)Oc3ccc(Cl)cc3)c3ccccc3n2)cc1,0.44
COc1ccc(N2CCN(C(=O)c3cn(C)c4ccc(S(=O)(=O)N(C)C5CCCCC5)cc4c3=O)CC2)cc1,-1.6

Other compounds follow:
smiles	Bm FixLJ act
CCN(CC)CCn1c(=N)n(CC(O)COc2ccccc2C)c2ccccc21 (stereo unspecified)	1.6
C=C(NC(=O)C(=C)NC(=O)c1csc(C2=NC3c4csc(n4)C4NC(=O)c5csc(n5)C(C(C)(O)C(C)O)NC(=O)C5CSC(=N5)C(=CC)NC(=O)C(C(C)O)NC(=O)c5csc(n5)C3(CC2)NC(=O)C(C)NC(=O)C(=C)NC(=O)C(C)NC(=O)C(C(C)CC)NC2C=Cc3c(C(C)O)cc(nc3C2O)C(=O)OC4C)n1)C(N)=O (stereo unspecified)	0.22
COC1CN(c2cc(C(F)(F)F)ccn2)CC1Cc1cc(C)no1 (stereo unspecified)	-0.57
COc1ccc(NC(=O)c2oc3ccccc3c2NC(=O)Cc2coc3c(C)c(C)ccc23)cc1	0.33
Cc1cc(-c2cc(S(=O)(=O)NCCCn3cccc3)c(C)s2)n[nH]1	-0.71
CCn1c(Cn2cccn2)nnc1C1CCN(C(=O)CCc2cn[nH]c2)CC1	-1.1
COCC(NC(=O)Cc1c(F)cccc1Cl)c1ccccn1 (stereo unspecified)	0.22
O=C(COc1ccc(Cl)cc1Cl)Nc1ccc(C(=O)OC2CCCCC2)cc1	-1.1
N[C@@H](Cc1cc(I)c(Oc2cc(I)c(O)c(I)c2)c(I)c1)C(=O)O	1.1&0.39
COc1cccc(NC(=O)C(CCSC)NC(=O)C2CCC(C)CC2)c1 (stereo unspecified)	-0.04
Cc1cccc(NC(=O)CCS(=O)(=O)c2cc(Br)cc3c2N(C(=O)C2CC2)CC3)c1C	0.77
Cc1ccccc1OCC(=O)Nc1ccc2oc(-c3ccc(F)cc3)nc2c1	0.54
COc1ccc(C)cc1NC(=O)CN(c1ccccc1)S(=O)(=O)N(C)C	-0.3
COCCOC(=O)C1=C(C)NC(C)=C(C(=O)OC/C=C/c2ccccc2)C1c1cccc([N+](=O)[O-])c1 (stereo unspecified)	-1
Cc1ccc(Cl)cc1N1CCN(C2(c3ccccc3)C(=O)c3ccccc3C2=O)CC1	0.62
CC(C)c1nccn1CCCNC1CCN(C(=O)c2cccs2)CC1	-1.7
Cc1cccnc1CCNC(=O)N1CCC(CCn2cccn2)CC1	0.1
CCCCNC(=O)CC1N=C2c3ccccc3N=C(SCC(=O)NCc3ccccc3Cl)N2C1=O (stereo unspecified)	-1.6
Cc1ccc(NC(=O)CNC(=O)C2(N3CCCC3)CCCC2)c(F)c1	-0.16
COCCNC(=O)Cn1c(=O)n(CCCCCC(=O)Nc2ccccc2)c(=O)c2sccc21	-0.6
COc1ccc(S(=O)(=O)N(CCc2ccccc2)CC(=O)Nc2cc(C)ccc2C)cc1	1.4
CC(C)COc1ccc(C(=O)N(Cc2cccc(F)c2)C2CCS(=O)(=O)C2)cc1 (stereo unspecified)	-1.4
O=C(c1ccc2c(c1)N(Cc1ccc(Cl)cc1)C(=O)c1ccccc1S2=O)N1CCN(c2ccccc2F)CC1 (stereo unspecified)	0.05
CC(=O)O[C@H]1C(=O)[C@@]2(C)C([C@H](OC(=O)c3ccccc3)[C@]3(O)C[C@H](OC(=O)[C@H](O)[C@@H](NC(=O)c4ccccc4)c4ccccc4)C(C)=C1C3(C)C)[C@]1(OC(C)=O)CO[C@@H]1C[C@@H]2O (stereo partly specified)	-1.2

Shown with each value named: entries from further up.
Compound: Cc1cccnc1CCNC(=O)N1CCC(CCn2cccn2)CC1
  Bm FixLJ act: 0.1
Compound: CCCCNC(=O)CC1N=C2c3ccccc3N=C(SCC(=O)NCc3ccccc3Cl)N2C1=O (stereo unspecified)
  Bm FixLJ act: -1.6
Compound: Cc1ccc(NC(=O)CNC(=O)C2(N3CCCC3)CCCC2)c(F)c1
  Bm FixLJ act: -0.16
Compound: COCCNC(=O)Cn1c(=O)n(CCCCCC(=O)Nc2ccccc2)c(=O)c2sccc21
  Bm FixLJ act: -0.6

In the list so far, three contain a furan ring, fused or not.
smiles	Bm FixLJ act
COC(=O)c1cc2oc3ccccc3c2n1Cc1nc(-c2ccc(Cl)cc2)oc1C	-0.99
Cc1cc(C)c(NC(=O)Cn2c(=O)n(Cc3ccco3)c(=O)c3ccc(C(=O)NC4CCCC4)cc32)c(C)c1	-0.16
COc1ccc(NC(=O)c2oc3ccccc3c2NC(=O)Cc2coc3c(C)c(C)ccc23)cc1	0.33

Additional compounds
smiles	Bm FixLJ act
C=CCNCC1(O)CCCN(CCCc2ccccc2)C1=O (stereo unspecified)	-1.8
O=C(Nc1noc2ccccc12)c1c(F)cccc1F	-0.91
CCc1nn(CC(=O)NCCCc2ccccc2)c(=O)c2cc3c(OC)cccc3n12	-0.45
CCOc1ccc(CCn2c3c(c(=O)[nH]c2=O)C(NC(=O)c2cccc(F)c2)(C(F)(F)F)C(=O)N3)cc1OCC (stereo unspecified)	-0.7
CCn1ncc(C(=O)N2CCC3(CC2)OCCc2cc(C(=O)O)sc23)c1C	1.2
CCc1nnc(CNC(=O)N(C)Cc2cc(C3CC3)on2)s1	-1.8
Cc1cc(C)n(-c2ccc(-c3nc(C)nn3C3CCS(=O)(=O)C3)cc2)n1 (stereo unspecified)	0.14
O=C(NCCCN1CCN(c2ccccc2F)CC1)c1nnc(Cc2ccc(Cl)cc2Cl)o1	-0.8
CCc1ccc2oc(-c3ccc(NC(=O)c4cc5ccccc5o4)cc3)nc2c1	-1.4
CCc1ccc(NC(=O)c2sc3nc(C)cc(C)c3c2NC(=O)c2ccccc2)cc1	-1.2
COc1ccc(OC)c(CCNC(=O)C(C)n2c(C)c3cnn(-c4ccccc4)c(=O)c3c2C)c1 (stereo unspecified)	-2
Cc1ccccc1NC(=O)c1c(C)oc2ccc(O)c(CN3CCCCCC3)c12	-0.15
CCOC(=O)c1ccccc1NC(=O)c1sc2ccccc2c1Cl	0.36
CCN(C(=O)Cn1c(=O)oc2cc(S(=O)(=O)N3CCCCC3)ccc21)c1ccccc1	-1.7
c1ccc(-c2ccnc(CCNc3cc(C4CCOC4)ncn3)n2)cc1 (stereo unspecified)	-0.12
CC(C)CC(NC(=O)C1CCC(C)CC1)C(=O)OCC(=O)c1ccc(Cl)cc1 (stereo unspecified)	-0.75
O=S(=O)(c1ccc(-n2cnnn2)cc1)N1CCN(c2cccc(C(F)(F)F)c2)CC1	-0.99
CN(C)S(=O)(=O)CC1CN(C(=O)c2cccc(C#CC(C)(C)O)c2)CC1O (stereo unspecified)	0.77
COc1ccc(CN2COc3ccc4c(-c5ccccc5)cc(=O)oc4c3C2)cc1	3.7*
COC1CN(c2ccc(C(F)(F)F)cn2)CC1Cc1cc(C)no1 (stereo unspecified)	0.07
CCc1nc2ccccc2n2c(-c3ccccc3)c3c(=O)n(C)c(=O)n(C)c3c12	-0.45
COc1ccc(-c2nc3ccccc3n2Cc2ccc(Cl)cc2)cc1	2.8
Cc1ccc(C(=O)CSc2nc(-c3ccccc3)nc3c2CCCC3)cc1C	-0.76
O=C(CSc1nc(-c2cccc(F)c2)[nH]c1-c1ccccc1)Nc1ccc2c(c1)OCO2	-0.24
CCCCn1cnc2cc(NC(=O)c3cc(OC)c(OC)c(OC)c3)ccc21	-1.4
Cc1oc(-c2ccccc2F)nc1CS(=O)(=O)CC(=O)N1CCN(c2ccc(Cl)cc2)CC1	-0.26
COc1ccc(C(=O)Nc2ccc(-c3cc4ccccc4oc3=O)c(C)c2)cc1OC	-0.94
Cc1cc(C)cc(N(CC(=O)NCCc2ccc(Cl)cc2)S(=O)(=O)c2c(C)noc2C)c1	-0.86
COc1cccc(-c2nc(CS(=O)(=O)CC(=O)NCCCc3ccccc3)c(C)o2)c1	0.95
COCc1cc(C)nc2sc3c(c12)NC(c1ccccc1C(=O)O)N(c1cccc(C(F)(F)F)c1)C3=O (stereo unspecified)	-1.3
CC(C)(C)C1CCc2c(sc(NC(=O)c3cccc(Cl)c3)c2C(N)=O)C1 (stereo unspecified)	-0.16
CCOc1ccc2nc(N3CCCC(C(=O)NCCc4ccc(C)cc4)C3)sc2c1 (stereo unspecified)	-2.3
Cn1c(=O)oc2cc(S(=O)(=O)N3CCC(C(=O)Nc4ccc(F)c(Cl)c4)CC3)ccc21	-2.3
O=C(NCc1ccccc1)c1nc(S(=O)(=O)Cc2ccccc2)ncc1Cl	-0.06
CC(=O)N1CCc2c(sc3c2c(=O)n(-c2cc(Cl)ccc2C)c(=O)n3Cc2ccccc2F)C1	0.12
CCOc1ccc(C(=O)c2oc3ccccc3c2NC(=O)Cc2coc3ccc(CC)cc23)cc1	-2
COc1ccccc1CCNC(=O)Cc1c(C)c2c(O)cc(C)cc2oc1=O	-6.2
COc1ccc(C2C(C(=O)Nc3cccnc3)=C(C)Nc3nc(-c4ccccc4)nn32)cc1OC (stereo unspecified)	-1.3
